NPYLR7 agonist – activates Aedes aegypti NPYLR7 receptor. HEK293T NPYLR7/Galpha15, GCaMP6s calcium fluorescence. activation, % at 10 µM. 270,000 compounds, 0.15% hits. AID 1259423; in the data active means activation above about 40%;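 further: 0% = vehicle and 100% = reference agonist at the receptor; some compounds past the cut are filed as inactive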
NPYLR7 agonist max-min – recorded beside NPYLR7 agonist, whose call it bears; activation, %; measured here: Max-Min RFU normalised activation; some inactives read as strong as hits;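 span of the calcium signal over five minutes; 0% = vehicle and 100% = native peptide agonist; compound fluorescence can raise it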
The depositor's hits bear a star; & = joins results of further samples.

Structure,NPYLR7 agonist,NPYLR7 agonist max-min
Cc1cnn(C(CCl)CN(CC(=O)Nc2c(C)nn(C)c2C)CC(=O)Nc2c(C)nn(C)c2C)c1 (centres undefined),14,14
CCCn1nnnc1CNc1ccc(-n2cncn2)c(Cl)c1,7,6
COc1ccc(NC2CCCN(C(=O)c3cccc(N4CCOCC4)c3)C2)cc1OC (centres undefined),5,2
O=C(Cn1ncn2nc(-c3ccc(Cl)cc3)cc2c1=O)NCc1ccco1,-11,-18
COc1ccc(NC(=S)NC(=NS(=O)(=O)c2ccccc2)c2ccccc2)cc1,-5,-8
CCC1CN(C(C)C(=O)NC2CCCCCC2)CCS1 (centres undefined),3,3
Oc1c(C(Nc2ccccn2)c2ccc(C(F)(F)F)cc2)ccc2cccnc12 (centres undefined),8,14
N#Cc1ccc(Nc2ccc(OC3CCCC3)cc2)nc1,6,2
Cc1nn(C)c(Oc2cccnc2)c1NC(=O)C1CCCC(C)C1 (centres undefined),6,2
O=C(NCc1ccc(-n2cnc3ccccc32)nc1)NCC1CCSCC1,0,-5
Cc1nn(CN2CCN(S(=O)(=O)c3ccccc3Cl)CC2)c(=O)c2ccccc12,1,4
CN(C(=O)Cc1ccc(OC(F)(F)F)cc1)c1ccc(Cl)nn1,-1,-10
Clc1cncc(Cl)c1CN1CCCCC1c1ccccn1 (centres undefined),17,4
CSc1nc2ccc(NP3(=O)C=C(c4ccccc4)OC(c4ccccc4)=C3)cc2s1,3,6
COc1cccc(CC(=O)NC2CCCN(Cc3ccc(Cl)cc3)C2)c1 (centres undefined),1,-3
CCOc1ncccc1CN1CCC(C(=O)NCCc2ccc(C)cc2)CC1,-6,-13
Cc1nc(SCC(=O)Nc2ccccc2)c2oc3ccccc3c2n1,-5,-8
CCC(=O)N(CCOC)CC(=O)N(CCc1ccccc1)Cc1ccc(C)o1,2,13
CCc1c2ccc(C)n2cc[n+]1CC,-15,-22
O=C(c1cccc(Oc2ccccc2)c1)N1[C@H]2CCNC[C@@H]1CC2,1,-1
Clc1ccc(OCc2cn3cccnc3n2)cc1,5,3
COc1ccc2cc(C3CN(CCCn4cccn4)CCO3)ccc2c1 (centres undefined),1,-1
CC(=O)NN=C1CCC(C(C)(C)C)CC1 (centres undefined),5,4
CCc1ccc(N(Cc2nnc3n2CCCCC3)C(=O)Nc2ccc(OC)cc2)cc1,7,5
O=C(NCCCc1ccccc1)c1cccnc1Oc1ccc(Cl)cc1,-6,-9
Oc1cccc(-c2nc3c4cnn(-c5cccc(Cl)c5)c4ncn3n2)c1,7,4
CNS(=O)(=O)c1ccc(CN2CCC(C(=O)N3CCCC3)CC2)cc1,3,2
CN(C)CCCN(C(=O)c1ccccc1)c1nc2c(F)cc(F)cc2s1,8,5
Cc1cc(F)cc(-c2c(-c3ccccc3)ncn2CC2CCS(=O)(=O)C2)c1 (centres undefined),19,9
NC(=O)c1cccnc1N1CCN(Cc2cc3n(n2)CCCNC3)CC1,-1,-8
CC(NC(=O)C1(N(C)Cc2ccccc2)Cc2ccccc2C1)c1ncn[nH]1 (centres undefined),0,0
CCc1nccn1Cc1nc(-c2cc(C)c(OC)cc2C)oc1C,4,3
Cc1ccc(C)c(-c2csc(NC(=O)c3cccs3)n2)c1,5,1
C=c1occc1=C1NN=C(SCC(=O)N2CCCC2)O1,3,4
CCOC(=O)c1cc(-c2ccc(Cl)cc2Cl)n(-c2ccc(C(=O)N3C(C)C=CC3C)cc2)n1 (centres undefined),5,1
Cc1ccccc1C(C)NC(=O)CSc1nnc(-c2cccs2)o1 (centres undefined),16,11
C=CCn1c(SCc2cccc(C(=O)OC)c2)nnc1-c1ccccc1F,21,27
Cc1ccnc(CC(C)N(C)C(=O)Cc2ccc(F)cc2F)c1 (centres undefined),1,0
CCOc1cc(/C=C2/SC(=S)N(CC(=O)O)C2=O)ccc1OCc1ccccc1,-1,-5
Cc1cc(NCCCNC(=O)c2occc2C)nc(C(C)C)n1,9,7
COc1cccc(-c2cnc3c(NC=O)cc(-c4ccc(OC)c(OC)c4)cn23)c1,-6,-10
C/C(=C/C(=O)O)C(=O)Nc1ccc(Cl)cc1,-4,-7
CN1C(=O)C(CC(=O)NCc2ncc[nH]2)(Cc2ccccc2)c2ccccc21 (centres undefined),2,-5
CCCCc1nc2cc(C(=O)N3C[C@@H]4CCC[C@H]3C4)ccc2o1,6,1
COc1cc(OC)cc(C(=O)Nc2ccc(-c3onc4c3CCc3cc(OC)ccc3-4)cc2)c1,-5,-14
CN1CCC2(CCN(C(=O)COCc3nc4ccccc4[nH]3)CC2)C1,1,3
Cc1cc(O)c(C(c2ccccc2)N2CCCCC2)c(=O)n1Cc1ccco1 (centres undefined),8,-1
CC(C)c1cc(C(=O)N2CC(c3ccncc3)C2)on1,-1,17
CCc1sc(C(=O)N(CCOC)C2CCS(=O)(=O)C2)cc1C (centres undefined),4,-15
CC(C)=CC1C(C(=O)O)C1(C)C (centres undefined),1&-11,3&-14
CN(Cc1cc(=O)n2cc(Br)ccc2n1)Cc1cccs1,3,2
CNC[C@H](O)c1cccc(O)c1,5&1,1&-37
O=C(Nc1ncc(Br)s1)C1CCCN(S(=O)(=O)c2cnc[nH]2)C1 (centres undefined),-2,-1
Cc1cc(C)c(C2c3cccn3CCCN2Cc2ccc([N+](=O)[O-])cc2)cc1C (centres undefined),25,21
CC(=O)N(c1cccc(C(F)(F)F)c1)c1nc(C=CC(=O)Nc2ccccc2F)cs1,12,15
COC(=O)c1ccc(C=NNC(=O)c2cc(-c3ccc(Cl)cc3)n[nH]2)cc1,1,-4
Cc1ccc(C2c3ccsc3CCN2CC(=O)N2CCN(C(=O)NCc3ccccc3)C(C)C2)cc1 (centres undefined),7,1
COCCCN1CCc2[nH]c(=S)[nH]c(=O)c2C1,-3,-9
Cc1ccc(-c2noc(CN3CCC(=O)NC3=O)n2)cc1F,-18,-18
CC(=O)OCC(=O)N1CCC(Cc2ccccc2)CC1,11,2

More entries.
Structure,NPYLR7 agonist,NPYLR7 agonist max-min
O=C(Cn1nnc(-c2cccs2)n1)N1CCc2ccccc2C1,0,-2
CCOC(=O)c1c(NC(=O)[C@H](C)OC(C)=O)sc2c1CCC2,14,5
Cc1ccn(CC(=O)N2CCCCC2C(=O)Nc2ccc(-n3nc(C)cc3C)cc2)n1 (centres undefined),16,8
OCC(O)/C=N\Nc1nc(N2CCOCC2)nc(N2CCOCC2)n1 (centres undefined),0,0
Cc1cc(C)n(CCC(=O)N2CCC(n3nccc3NC(=O)CC(C)C)CC2)n1,-4,-4
Cc1cccn2c(CNCCOc3cccnc3)c(C(=O)N3CCCCC3)nc12,17,5
O=C(c1cc(F)ccc1Cl)N1CC(=O)N2CCc3ccc(Cl)cc3C2C1 (centres undefined),11,16
O=C(CN1CCN(c2ccccn2)CC1)c1ccc(N2CCCC2=O)cc1,-3,-5
COCC(C)Nc1ncnc2c1c(-c1ccccc1)cn2-c1ccc(OC)cc1 (centres undefined),-1,0
Cc1ccc(S(=O)(=O)NCCn2nc(-c3ccc(Cl)cc3)ccc2=O)s1,-2,-3
O=C(Nc1cccc(-c2cccc(Cl)c2)c1)C1CCN(C(=O)C2CC=CCC2)CC1 (centres undefined),11,9
Cn1cc(C(=O)N2CCc3ccccc32)c2nn(-c3ccccc3)c(=O)c-2c1,3,3
COCC(=O)N(Cc1cc(NC(=O)c2ccccc2Cl)ccc1N(C)C)CC1CC1,-7,8
Cc1cccc(CC(=O)NCc2nnnn2C2CCCCC2)c1,23,12
CC(C)[C@H](NC(=O)COc1cccc(Cl)c1)c1nnc2c(C(F)(F)F)cccn12,-8,-8
COCCNC(=O)CCN(Cc1ccco1)c1nc(-c2ccccc2Cl)nc2ccccc12,14,22
CCc1nc2ccc(C(=O)NCCN(C)C)cn2c1N(C)C(=O)c1cccc(OC)c1,15,13
O=C(c1ccc(=O)n(Cc2ccc(F)cc2)n1)N1CCN(c2ccccc2)CC1,3,1
COc1ccc(C2=NN(C(=O)C34CC5CC(CC(C5)C3)C4)C(c3cccc([N+](=O)[O-])c3)C2)cc1 (centres undefined),-8,-15
O=C(CSc1nc2ccccc2o1)N1CCNC1=O,-3,-4
CCCC1=NN(C(C)=O)C(C(=O)NCC2CC[C@H]3C[C@@H]2C3(C)C)O1 (some centres undefined),18,11
CC1(C)CC(=O)C2=C(C1)OC1(C)OC(=O)CC21 (centres undefined),-2,-3
CC(C)(NS(C)(=O)=O)c1cccc(Cl)c1,0,-4
O=C(Cc1csc(NC(=O)c2ccccc2F)n1)OC1CC2CCC1C2 (centres undefined),1,1
C=CCNc1nc(C(=O)OCC(=O)NCCN2C(=O)CSC2=O)cs1,5,2
CC(C)CCN1C(=O)N(CCN(C)C)C(=O)C12CCN(Cc1nc3ccccc3n1C)CC2,20,6
O=S(=O)(c1cc(C(F)(F)F)ccc1C(F)(F)F)N1CCC(c2c[nH]c3ccc(F)cc23)CC1,17,21
O=C(c1cc(-c2ccc([N+](=O)[O-])cc2)nn1-c1ccccc1Cl)N1CCC(Cc2ccccc2)CC1,19,23
O=C(c1cccs1)c1ccccc1C(=O)N1CCC2CCCCC2C1 (centres undefined),-4,-5
CCOC(=O)c1c(C)sc(C=NNc2ccccc2)c1O,8,5
COc1ccc2c(c1)C(C)(Cc1ccc(C(C)C)cc1)C(=O)N2 (centres undefined),2,1
CC(O)CN(Cc1c(-c2ccccc2)noc1N1CCN(C)CC1)C1CC1 (centres undefined),-4,2
O=C(c1nnn(-c2ccccc2)c1CSc1ncccn1)N1CCc2ccccc2C1,-1,-6
CCOC(=O)c1nn(-c2ccc(C)cc2)c(=O)c2c(NC(=O)C(CC)c3ccccc3)scc12 (centres undefined),4,-2
O=S(=O)(NCCNc1nc(-c2ccc(F)cc2)nc2cc(Cl)ccc12)c1ccc(F)cc1,-1,8
CS(=O)(=O)CC1(CC(=O)NC2CCCCCCC2)CC1,2,-1
CCc1nc(COC(=O)C2CCCN(S(C)(=O)=O)C2)cs1 (centres undefined),6,1
COc1ccc(CNc2ncn[nH]2)cc1OC,-1,-3
COCc1nc2nccc(-c3ccc4ccccc4c3)n2n1,-11,-20
Cc1nc2cc(F)ccc2cc1C(=O)NCCC(=O)N1CCCC1,1,-1

Single entries from the list:
CCOC(=O)c1nn(-c2ccc(C)cc2)c(=O)c2c(NC(=O)C(CC)c3ccccc3)scc12 (centres undefined) @ NPYLR7 agonist = 4
COc1ccc2c(c1)C(C)(Cc1ccc(C(C)C)cc1)C(=O)N2 (centres undefined) @ NPYLR7 agonist = 2

Entries of single compounds, quoted from the list.
Profile of CC(C)(NS(C)(=O)=O)c1cccc(Cl)c1 = NPYLR7 agonist: 0; NPYLR7 agonist max-min: -4
Profile of O=C(c1cccs1)c1ccccc1C(=O)N1CCC2CCCCC2C1 (centres undefined) = NPYLR7 agonist: -4; NPYLR7 agonist max-min: -5

Other results follow:
Structure,NPYLR7 agonist,NPYLR7 agonist max-min
CC1=C(C(=O)OC2CCCC2)C(c2cccc([N+](=O)[O-])c2)NC(=O)N1C (centres undefined),6,7
CCCn1c(=O)c2c(nc3n(-c4ccc(Cl)cc4)c(C)cn23)n(C)c1=O,6,-1
C=C(C)CN(CC)c1nc(N)c(C#N)c(C(C#N)Cc2ccc(C)cc2)c1C#N (centres undefined),4,6
O=C(Nc1cccc(-c2cscn2)c1)C1CCN(CCCn2cccn2)CC1,3&2,0&-2
O=C(O)CCCC(=O)Nc1ccc(N2C(=O)C3C4CCC(C4)C3C2=O)cc1 (centres undefined),8,12
CSCCC(=O)Nc1cc(-c2ccco2)nn1-c1ccc(C(F)(F)F)cc1,-3,5
Cc1ccccc1-n1c(SCc2ccc(C(N)=O)cc2)nnc1-c1ccncc1,2,12
CCOC(=O)c1c(C)[nH]c(C(=O)Nc2c(C)n(C)n(-c3ccccc3)c2=O)c1C,11,3
CN(C(=O)Cn1c(-c2ccc(F)cc2)nc2c(c1=O)CCN(Cc1ccccc1)C2)c1ccccc1,-5,-7
Cn1ccnc1C(NC(=O)C1CCN(S(=O)(=O)c2ccc(F)c(F)c2)CC1)c1ccccc1 (centres undefined),-1,5
COCCN(CC(=O)N1CCc2sccc2C1c1ccccc1)S(=O)(=O)c1ccc(F)cc1 (centres undefined),24,27
O=C(NC1CCCCC1)c1cc2nc(-c3ccc(Cl)c(Cl)c3)cc(C(F)(F)F)n2n1,-15,-18
CC1CN(c2ccnc(C(=O)NCc3ccccc3)c2)CCS1 (centres undefined),-6,-11
COc1ccc(NC(=O)N2CCN(CC(OCc3ccc(C(F)(F)F)cc3)c3ccc(Cl)cc3)CC2)c(OC)c1 (centres undefined),17,2
Cc1nn(-c2ccc(N3CCCCC3)nn2)c2c1C(c1ccc(O)cc1)CC(=O)N2 (centres undefined),-16,-22
COc1cccc(-c2cccc(NC(=O)C3CCN(CC4CC4)CC3)c2)c1,7,3

Part of the list above, reformatted:
Values in the order: NPYLR7 agonist	NPYLR7 agonist max-min
> O=C(O)CCCC(=O)Nc1ccc(N2C(=O)C3C4CCC(C4)C3C2=O)cc1 (centres undefined)
→ 8	12
> CSCCC(=O)Nc1cc(-c2ccco2)nn1-c1ccc(C(F)(F)F)cc1
→ -3	5
> Cc1ccccc1-n1c(SCc2ccc(C(N)=O)cc2)nnc1-c1ccncc1
→ 2	12
> CCOC(=O)c1c(C)[nH]c(C(=O)Nc2c(C)n(C)n(-c3ccccc3)c2=O)c1C
→ 11	3
> CN(C(=O)Cn1c(-c2ccc(F)cc2)nc2c(c1=O)CCN(Cc1ccccc1)C2)c1ccccc1
→ -5	-7
> Cn1ccnc1C(NC(=O)C1CCN(S(=O)(=O)c2ccc(F)c(F)c2)CC1)c1ccccc1 (centres undefined)
→ -1	5
> COCCN(CC(=O)N1CCc2sccc2C1c1ccccc1)S(=O)(=O)c1ccc(F)cc1 (centres undefined)
→ 24	27

Source: PubChem

The list is partial; the hit share may differ from the screen's.
